Mtb hypoxia rep – Mtb hypoxia fluorescent reporter inhibition; actives 0.1% (n = 300,000); M. tuberculosis hypoxia-regulated fluorescent reporter, fluorescence; fluorescence inhibition, % (concentration not given with the values);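 active = 35 to 45% if threefold the growth effect, above 45% if 1.5-fold the growth effect; inactive = the rest, general growth blockers included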;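 note: wells of about 50 µL received 100 nL stock; 0% = vehicle wells and 100% = reference inhibitor wells; whole bacteria with a GFP reporter of the hypoxia response; strong numbers were not always called active; many hits fall short of the cut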
PrP 5UTR inh – inhibition of PrP 5' UTR reporter expression. inhibition, % (no concentration beside the values). actives 0.35% (n = 340,000). cell-based PrP 5' UTR mRNA reporter, plate reader;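 active = every replicate at 50% or more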;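 note: 0 = median of the neutral control wells; tested in H4 reporter cells; numbers are from one replicate; inactives centre near -14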
Sa ugtP lethal – growth inhibition of S. aureus ugtP deletion strain. growth inhibition, % (concentration not given with the values). actives 0.54% (n = 330,000). S. aureus RN4220 ugtP deletion, OD600 growth, 16 h; some inactives read as strong as hits;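 active = z-score under -3 and OD600 up to 0.15 on both plates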;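 note: plate controls were untreated wells for no effect and antibiotic for full effect; wells of about 80 µL received 100 nL stock; the first replicate is given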
Bead autofluor – flagged as autofluorescent in microsphere protease counterscreen; compound autofluorescence counterscreen, microsphere flow cytometry; hits give high values; fluorescence intensity (concentration not given with the values); actives 3.1% (n = 360,000); AID 624483;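 active = at least 3 SD above the mean of all compounds, about 16000 in these data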;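 note: 100 nL of 1 mM stock went into each well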
BJeLR lethal – kills HRASV12-expressing BJeLR cells | BJeLR (HRASV12) viability, CellTiter-Glo ATP luminescence, 48 h; reference of the scale not given here | inhibition, % (no concentration beside the values) | actives 0.17% (n = 300,000) | AID 1554;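 active = replicate mean above 50%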;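 note: 50 nL library stock added to about 25 µL; numbers are from one replicate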
RN4220 kill – S. aureus RN4220 growth inhibition. inhibition, % (test concentration not listed). AID 1259311. actives 0.33% (n = 330,000). OD600, 16 h;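 active = z-score of -3 or lower and OD600 up to 0.18 on both plates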;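 note: plate controls were untreated cells for no effect and reference antibiotic for full effect; stock transfer was 100 nL into about 80 µL; one replicate is shown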
Mtb hypoxia rep growth – also measured in Mtb hypoxia rep; calls as there; growth inhibition, %; measured here: M. tuberculosis growth (absorbance);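 0% = vehicle and 100% = reference antibiotic; read after six days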
* marks the source's active call; other numbers are inactive results; . = no result given; & = joins results of further samples.

The line under a structure holds: Mtb hypoxia rep	Mtb hypoxia rep growth	PrP 5UTR inh	Sa ugtP lethal	Bead autofluor	BJeLR lethal	RN4220 kill
COc1ccc(NC(=O)CCCCC(=O)Nc2ccc(OC)cc2OC)c(OC)c1
    10	4	-7	3	2535	-12	2.8
CC(=O)Nc1ccc(S(=O)(=O)NCCC(=O)OCC(=O)NCc2ccccc2)cc1
    -2	-6	.	17	.	.	6.0
O=C(NC(=Cc1cccnc1)C(=O)N1CCOCC1)c1ccccc1
    7	9	.	-2	.	.	3.0
O=C(Nc1ccc([N+](=O)[O-])cc1)C(=O)Nc1cccc(C(=O)O)c1
    .	.	88*	.	4332	41	.
O=c1[nH]c(=O)n(Cc2ccccc2)c(O)c1C=Nc1ccc(CN2CCOCC2)cc1
    .	.	-12	-1	2773	1	-1.4
COCCCn1c(SCc2cc(=O)[nH]c3ccccc23)nnc1-c1ccco1
    .	.	-18	-1	4235	-8	2.7
O=C(NC1CCNCC1)C1CCCCC1
    0	5	-24	11	3385	0	2.0
Cc1ccc2nc(NC(=O)c3ccc4ncsc4c3)sc2c1
    -5	-4	-115	-14	5092	11	-0.6
C=CCN(C(=O)c1csnn1)C(C(=O)NC1CCCC1)c1ccccc1F (stereo not drawn)
    5	-2	-31	8	3907	5	1.4
CSc1cccc(NC(=O)C(=O)NCc2ccccc2)c1
    4	4	-21	-2	4395	-5	2.7
CC1CCCCC1NC(=O)CSc1nnnn1C (stereo not drawn)
    -2	-1	-31	2	6100	.	1.4
Cc1ccc(NC(=S)NC(=O)/C=C/c2ccco2)c(O)c1
    -4	-13	-13	7	2680	-1	-1.9
CC(C)S(=O)(=O)CC(=O)c1ccc(Cl)cc1
    12	8	-19	7	2051	1	2.9
CCNC(=O)c1ccc(CSc2ccc(Cl)cc2)cc1
    -3	-1	-14	1	2254	0	7.5
CCOc1cc(/C=C2\N=C(SC(C)C(N)=O)N(c3ccc(OC(F)F)cc3)C2=O)ccc1O (stereo not drawn)
    -12	4	1	-11	5896	7	-1.6
CC1CCN(CC(=O)N2c3ccccc3CCc3ccccc32)CC1
    7	2	-7	2	16766*	-2	0.7
Cc1c(C(=O)NCc2ccc3c(c2)cc(C)n3C)cccc1[N+](=O)[O-]
    7	14	-8	-4	1750	-3	6.0
C/C(Cn1cnc([N+](=O)[O-])n1)=N\NC(=O)c1ccc(Br)cc1
    .	.	-14	.	2457	-13	.
Cn1c(=O)oc2cc(S(=O)(=O)NCc3ccccn3)ccc21
    -3	1	-28	-5	5649	-5	7.0
C=CCn1c(O)c(N=NC(=S)Nc2cccc(OC)c2)c2ccccc21
    15	7	38	-15	8494	36	15
O=C(O)c1ccc2c(c1)C(=O)N(c1cccc(C(=O)/C=C/c3ccccc3)c1)C2=O
    8	-2	-4	1	4223	4	5.2
CC(=O)Nc1ccc2c(c1)ncn2C
    3	12	-5	2	8777	-5	2.2
O=C(CSc1ccc(-c2cccnc2)nn1)Nc1ccccc1
    7	-3	-18	7	5769	-12	6.9
CCOC(=O)N1CCC(N(CCN(C)C)C(=S)Nc2cc(C)cc(C)c2)CC1
    16	8	-22	4	2195	-9	6.2
O=S(=O)(c1ccccc1)N1N=C(c2ccccc2)CC1c1ccccc1 (stereo not drawn)
    -1	4	-3	14	4398	.	3.8
COc1ccc(-c2cc(C)no2)cc1S(=O)(=O)N(C)c1cccc(C)c1
    2	2	7	2	4514	4	3.0
CCc1ccc(-c2cc(C(=O)NN3CCOCC3)c3ccccc3n2)cc1
    .	.	-32	-6	4712	6	2.0
Cc1ccc2nc(NCCO)nc(-c3ccccc3)c2c1
    8	4	8	-6	23056*	0	1.9
COc1ccccc1NC(=O)CSc1ccc(-c2ccc(-n3cccn3)cc2)nn1
    -6	6	-12	-11	.	-10	-8.8
COC(=O)[C@H](CC(C)C)NC(=O)Cn1cnc2c(NCc3ccccc3)ncnc21
    -6	9	-5	-9	3916	.	-0.4
COc1cc(C(=O)NCCc2ccc3c(c2)OCO3)cc(OC)c1OC
    7	1	-8	6	3575	.	0.3
Cc1c(NC(=O)CCC2CCCCC2)cc(C(=O)N2CCOCC2)cc1[N+](=O)[O-]
    -13	2	7	-5	3191	-9	1.8
CC[n+]1c(/C=C/c2ccc(OC(C)=O)c(OC)c2)ccc2ccccc21
    -3	5	-7	8	3769	-7	2.4
COC(=O)CCc1c(COC(C)=O)[nH]c(C(=O)OCc2ccccc2)c1C
    -7	1	-18	3	2858	8	4.9
O=C1C(=O)N(CC2CCCO2)C(c2ccco2)/C1=C(/O)c1ccc(F)cc1 (stereo not drawn)
    -1	9	-26	8	3936	6	5.9
Cc1cccc(OCC(=O)N(Cc2cccs2)C2CCS(=O)(=O)C2)c1 (stereo not drawn)
    4	5	-8	4	4218	-1	-0.3
Cc1cc(C)c(S(=O)(=O)NN=Cc2ccc3c(c2)OCO3)c(C)c1
    2	5	.	38	.	.	-9.7
Cc1cccc(-c2nc(CS(=O)CC(=O)NCCc3ccccc3)c(C)o2)c1 (stereo not drawn)
    17	4	-20	6	6653	10	3.6
Cn1c(O)c(C=NC2CCCCCC2)c(=O)[nH]c1=S
    15	11	-22	-2	2497	3	0.3
CC(C)N=C1SC(CC(=O)Nc2ccccc2)C(=O)N1C(C)C (stereo not drawn)
    9	8	3	6	2039	-4	6.5
O=C(CCC1CCCN(C(=O)c2ccc3c(c2)OCO3)C1)NCc1ccc(F)c(F)c1 (stereo not drawn)
    -1	-5	-8	11	2377	-10	0.7
[N-]=[N+]=NC[C@H](Cc1ccccc1)N1CC[C@@H](O)CCC1=O
    .	.	-22	.	3369	4	.
Nc1nnnn1CC(=O)OCc1cccc(Br)c1
    3	-6	-11	6	23207*	8	5.6
O=C1NCC(Nc2ccc(Cl)cc2)C(=O)N1 (stereo not drawn)
    20	8	-13	8	3741	.	4.7
COc1ccc(C(=O)CSc2nnc(-c3ccoc3C)n2CC2CCCO2)cc1 (stereo not drawn)
    .	.	16	-14	4570	5	-1.4
CC1CCCCC1NC(=O)c1ccc(S(=O)(=O)NCc2ccco2)cc1 (stereo not drawn)
    3	7	-16	7	8711	3	4.8
COC(=O)c1ccc(N2C(=O)CC(N3CCC(n4c(=O)[nH]c5ccccc54)CC3)C2=O)cc1 (stereo not drawn)
    .	.	3	-1	2061	2	-0.3
Cc1c(Cl)cccc1NC(=O)c1cc(S(=O)(=O)N2CCOCC2)cn1C
    4	2	2	8	4176	0	8.1
C=CCn1c(P(C)(=O)O)nc2ccccc21
    15&10	-1&10	-22&-8	11&3	3475&2421	8&2	4.4&2.6
CC(C)CN1C2CCCC1CC(NC(=S)NCc1ccco1)C2 (stereo not drawn)
    9	2	-23	-1	4740	-5	3.8
CC(C)CCC(CCNCc1ccccn1)c1ccc2c(c1)OCO2 (stereo not drawn)
    -6	10	-2	-5	4860	11	-1.7
CCCc1nnc(NC(=O)CCC(=O)NCc2ccccc2OC)s1
    2	8	-2	1	22157*	4	2.3
Cc1ccc2c(Cl)c(C(=O)NC3CC3)sc2c1
    8	13	-67	1	5128	.	5.4
CC(NC(=O)Cc1ccc([N+](=O)[O-])cc1)c1ccc2c(c1)OCO2 (stereo not drawn)
    -1	6	-28	7	4176	3	0.2
O=C(NCCN1CCN(C(=O)c2ccccc2Cl)CC1)C(=O)NCc1ccccc1
    -8	3	-30	10	3815	-8	4.8
CCc1ccc(CN(C)Cc2nc(-c3cccc(Cl)c3)no2)nc1
    5	7	-26	14	4878	3	12
O=S(=O)(Nc1nc2ccccc2nc1Nc1ccc2c(c1)OCO2)c1ccccc1
    2	11	-10	-8	2476	17	11
O=C(CSc1n[nH]c(-c2cccnc2)n1)Nc1ccccc1[N+](=O)[O-]
    1	0	-18	0	3544	-5	3.7
CN(CC(=O)Nc1ccc(F)cc1)c1ccc(S(=O)(=O)N2CCCCC2)cc1[N+](=O)[O-]
    10	2	-10	-1	2092	-2	2.3
COc1ccc(N(C(=O)c2ccc(Cl)cc2)C2=CC3CCC(C2)N3C)cc1 (stereo not drawn)
    2	0	4	-8	2504	4	-4.5

More results.
The line under a structure holds: Mtb hypoxia rep	Mtb hypoxia rep growth	PrP 5UTR inh	Sa ugtP lethal	Bead autofluor	BJeLR lethal	RN4220 kill
COC(=O)Nc1ncc(CN2C(=O)c3ccccc3C2=O)s1
    15	5	-48	1	10344	-10	3.4
CSc1nc(C)c(CCOCc2ccc(F)cc2)c(=O)[nH]1
    11	5	-6	11	4755	7	3.1
NS(=O)(=O)c1ccc(N2C(=O)C(=O)/C(=C(/O)c3ccccc3)C2c2ccc(Cl)cc2)cc1 (stereo not drawn)
    7	1	-12	6	3661	-3	1.4
CCc1nnc(NC(=O)CCS(=O)(=O)c2ccccc2)s1
    1	16	5	1	6086	-11	0.5
COc1ccccc1NC(=O)NCCN1CCCCC1
    13	5	-16	4	3155	-4	1.2
Cc1ccc(NC(=O)CSc2n[nH]c(-c3cccnc3)n2)c(Br)c1
    11	2	-34	2	4472	0	5.7
COc1ccc(OC)c(S(=O)(=O)NN=C(C)c2ccc3c(c2)OCO3)c1
    14	10	.	5	.	.	4.4
COCCNC(=O)C(c1ccc(F)cc1)N(Cc1cccs1)C(=O)CCC(=O)Nc1ccccn1 (stereo not drawn)
    19	3	-32	-1	3705	3	4.2
Cc1csc(=O)n1CC(=O)Nc1nc2ccccc2s1
    11	8	-19	2	6700	.	-1.7
CC(=O)Nc1ccc(S(=O)(=O)N(C)CC(=O)OCC(=O)c2cc(C)n(-c3ccc4c(c3)OCO4)c2C)cc1
    -8	0	-21	-9	2337	4	2.9
CCOc1ccc(C(=O)NCCc2cnc[nH]2)cc1OCC
    10	8	-31	4	3487	7	1.6
O=C(Cc1cccs1)N(Cc1cccs1)C1(C(=O)NC2CCCC2)CCCCC1
    19	11	-15	-12	3915	-10	-1.8
CC(=O)c1cccc(NC(=O)N2CCCC2C(=O)Nc2cccc(C)c2C)c1 (stereo not drawn)
    4	2	-14	-2	4238	.	-4.2
Cc1ccc(C(=O)CSc2nnc(-c3ccc4[nH]c(C)c(C)c4c3)o2)cc1C
    19	9	-35	98*	9349	-6	18
O=S(Cc1ccc(Br)cc1)Cc1nnc(SCc2ccc(Br)cc2)n1-c1ccccc1 (stereo not drawn)
    7	11	-23	-30	1957	4	-6.9
CCc1nn(CC(=O)NCCCN2CCCC2=O)c(=O)c2cc3sccc3n12
    .	.	-22	-3	6110	-5	2.7
CCOC(=O)Cc1ccc(NC(=O)c2ccc(C(C)(C)C)cc2)cc1
    19	11	51	-12	3246	38	-8.8
COc1ccc(C/C(N)=N/OC(=O)Cc2ccccc2)cc1
    11	6	-3	7	9326	-3	5.6
Cc1c(/C=N\NC(=O)c2ccc(F)cc2)cnn1C
    .	.	-14	.	2013	-11	.
COC(=O)/C=C1/SC(=NC(=O)c2ccccc2)NC1=O
    2	6	-17	6	2204	1	7.3
CCn1c(O)c(N=N)c2ccccc21
    -4	5	-18	1	4354	-3	3.0
CCCCCN(C(=O)CCC(=O)OCC(=O)N(CC)C1CCCCC1)c1c(N)n(CCCC)c(=O)[nH]c1=O
    -2	0	-3	3	6054	3	2.4
Cc1ccc(N2C(=O)C3N=NN(CC(=O)N4N=C(c5ccccc5)CC4c4ccccc4)C3C2=O)cc1 (stereo not drawn)
    15	9	-37	-6	4635	-3	3.0
CCCC(=O)Nc1ccc(S(=O)(=O)N2CCOCC2)cc1
    8	1	-24	6	11309	3	3.8

Limited to PrP 5UTR inh, RN4220 kill and BJeLR lethal, for some of the entries so far:
Structure | PrP 5UTR inh | RN4220 kill | BJeLR lethal
Cc1ccc(C(=O)CSc2nnc(-c3ccc4[nH]c(C)c(C)c4c3)o2)cc1C | -35 | 18 | -6
O=S(Cc1ccc(Br)cc1)Cc1nnc(SCc2ccc(Br)cc2)n1-c1ccccc1 (stereo not drawn) | -23 | -6.9 | 4
CCc1nn(CC(=O)NCCCN2CCCC2=O)c(=O)c2cc3sccc3n12 | -22 | 2.7 | -5
CCOC(=O)Cc1ccc(NC(=O)c2ccc(C(C)(C)C)cc2)cc1 | 51 | -8.8 | 38
